Menin MLL FP FL – displaces fluorescein MLL peptide from human menin | AID 1766 | FP activity change, % at 61.4 µM | 290,000 tested, under 10 active | Fluorescence polarization, fluorescein-MLL peptide displacement from menin; inconclusive = falling polarisation curve, or a change in total fluorescence; inactive = total fluorescence flat and polarisation flat or rising; no compound was filed as active; the % refers to the polarisation; negative = inhibition;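 note: % of control where 0% means no effect; inhibitors lower the polarisation; unlabelled MLL peptide was the positive control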
gsp antag – antagonists of gsp mutant (McCune-Albright syndrome); gsp-mutant cells, cAMP HTRF, 30 min; control for the full effect not named in the record; Potency, µM (highest dose often 76.9 µM), for inactives: at the highest dose activity change, negative = inhibition, actives largely listed as inhibitors; actives 0.4% (n = 340,000); active = falling curve of any shape with a large fitted effect; inconclusive = falling curve, mostly with a smaller effect; inactive = flat or rising curve; cell line not stated here;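 note: intracellular cAMP measured with PDE inhibitor Ro 20-1724 present during compound exposure; potency is the fitted concentration of half-maximal effect; % is set by controls: 0 for no effect and ±100 for the full control effect; nearly all actives have a fitted effect of over 65% in size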
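Cells, 2000/well, grown 16–24 h in DMEM 10% FBS with 0.5 mg/ml G418, then compounds plus […] (300 uM addition stock), 30 min at 37C. cAMP read by HTRF (cAMP-d2 and anti-cAMP antibody-K in lysis buffer) after 30 min RT.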
TRPML1 blocker – inhibitors of human TRPML1 channel | Q9GZU1 | TRPML1-inducible cells, Ca2+ dye fluorescence, FDSS; stronger effect = lower value; inhibition of EC80 agonist-evoked calcium signal | activity change, negative = inhibition, % (no concentration beside the values) | actives 0.02% (n = 390,000) | AID 624415; in the data active means activity change below about -50%; inconclusive means about -30% to -50%; inactive means above about -30%;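 note: stimulus is agonist 54-4 at its EC80 concentration; % is set by controls: 0 for no effect and ±100 for the full control effect; compound concentration not given in the record; the text of the record puts the active cut at -80%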
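Tet-induced TRPML1-DL cells loaded with Ca8 no-wash calcium dye were read kinetically on FDSS. Compound addition was followed by EC80 agonist 54-4 (4 uM final); inhibition was read over 110 s.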
gsp agonist – gsp mutant agonism; Potency, µM (doses to about 76.9 µM), without a hit: top-dose activation (cAMP increase), hits mostly activators; actives 0.13% (n = 340,000); gsp mutant cells, cAMP HTRF, 30 min; control for the full effect not named in the record; active = well fitted activation curve with a large enough effect; inconclusive = small, poorly fitted or top-dose-only effect, or another doubt; inactive = no such curve, though single readings can be large or run the other way; cell line not stated here;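 note: phosphodiesterase inhibitor Ro 20-1724 added with compounds to block cAMP breakdown; potency is the fitted concentration of half-maximal effect; nearly all actives have a fitted effect of over 60% in size; about a fifth of the inactives were tested at one dose only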
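Cells in DMEM/10% FBS with G418 were pretreated with compounds in DMSO plus […] (300 uM stock) for 30 min at 37C. cAMP was measured by HTRF (cAMP-d2 plus anti-cAMP antibody-K) after 30 min at room temperature.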
ClpP mod – qHTS Assay for Activators of ClpP; ATP-dependent Clp protease proteolytic subunit (Bacillus subtilis (strain 168)), P80244; purified B. subtilis ClpP, FRET peptide cleavage, 20 min; Potency, µM (highest dose often 57.5 µM), without a hit: at the top dose activity change, negative = active; actives 1.9% (n = 340,000); AID 651965, 2013; active = well fitted falling curve with a large enough effect; inconclusive = small, poorly fitted or top-dose-only effect; inactive = no such curve, though single readings can be large or run the other way; note: potency is the fitted concentration of half-maximal effect; the source files actives as falling curves though it sought activators and does not explain the sign; nearly all actives have a fitted effect of over 65% in size; many hits overshoot -100%
Target sequence (P80244 whole entry, looked up): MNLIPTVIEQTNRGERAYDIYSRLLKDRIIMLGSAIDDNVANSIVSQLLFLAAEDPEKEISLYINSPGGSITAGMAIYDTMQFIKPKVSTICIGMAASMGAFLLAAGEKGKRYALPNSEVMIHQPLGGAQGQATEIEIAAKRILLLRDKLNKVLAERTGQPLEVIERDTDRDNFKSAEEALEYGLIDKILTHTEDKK
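ClpP 10 microg/mL final, pH 8 Tris/KCl buffer with BSA, glycerol, Tween-20; compound pinned in; FRET-FV substrate; RT 20 min; Ex320/Em430; ΔFRET vs ADEP 5.8 microM, DMSO, no enzyme.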
Sfp PPTase inh – Sfp phosphopantetheinyl transferase inhibition; actives 3.5% (n = 310,000); Biochemical Sfp PPTase activity, qHTS; Potency, µM, for the others: max response, negative = inhibition, most hits filed as inhibitors; active = well fitted inhibition curve with a large enough effect; inconclusive = small, poorly fitted or top-dose-only effect, or another doubt; inactive = no such curve, though single readings can be large or run the other way;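 note: the enzyme is Sfp with the accession as filed and its product quenches rhodamine fluorescence; potency is the fitted concentration of half-maximal effect; 0% = enzyme reaction without inhibitor and -100% = no enzyme wells; top concentration of the series not given in the record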
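After 15 min at room temperature with compound, 15 nM Sfp received 5 uM rhodamine-CoA plus 12.5 uM BHQ-2-ybbR (50 mM Hepes pH 7.6, 10 mM MgCl2). Rate came from the fluorescence difference over 30 min, ex 525/em 598 nm.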
TRPV1 PAM – human TRPV1 potentiation | TRPV1-expressing cells, Fluo-8 calcium influx, capsaicin EC20 potentiation; host cell line not named in the record; control for the full effect not named in the record | Q8NER1 | potentiation, % at 8.33 µM | actives 0.02% (n = 320,000); active means potentiation above 80%; inconclusive means 30% to 80%; inactive means below 30%; note: 0% is about no effect
Target sequence (Q8NER1 whole entry, looked up): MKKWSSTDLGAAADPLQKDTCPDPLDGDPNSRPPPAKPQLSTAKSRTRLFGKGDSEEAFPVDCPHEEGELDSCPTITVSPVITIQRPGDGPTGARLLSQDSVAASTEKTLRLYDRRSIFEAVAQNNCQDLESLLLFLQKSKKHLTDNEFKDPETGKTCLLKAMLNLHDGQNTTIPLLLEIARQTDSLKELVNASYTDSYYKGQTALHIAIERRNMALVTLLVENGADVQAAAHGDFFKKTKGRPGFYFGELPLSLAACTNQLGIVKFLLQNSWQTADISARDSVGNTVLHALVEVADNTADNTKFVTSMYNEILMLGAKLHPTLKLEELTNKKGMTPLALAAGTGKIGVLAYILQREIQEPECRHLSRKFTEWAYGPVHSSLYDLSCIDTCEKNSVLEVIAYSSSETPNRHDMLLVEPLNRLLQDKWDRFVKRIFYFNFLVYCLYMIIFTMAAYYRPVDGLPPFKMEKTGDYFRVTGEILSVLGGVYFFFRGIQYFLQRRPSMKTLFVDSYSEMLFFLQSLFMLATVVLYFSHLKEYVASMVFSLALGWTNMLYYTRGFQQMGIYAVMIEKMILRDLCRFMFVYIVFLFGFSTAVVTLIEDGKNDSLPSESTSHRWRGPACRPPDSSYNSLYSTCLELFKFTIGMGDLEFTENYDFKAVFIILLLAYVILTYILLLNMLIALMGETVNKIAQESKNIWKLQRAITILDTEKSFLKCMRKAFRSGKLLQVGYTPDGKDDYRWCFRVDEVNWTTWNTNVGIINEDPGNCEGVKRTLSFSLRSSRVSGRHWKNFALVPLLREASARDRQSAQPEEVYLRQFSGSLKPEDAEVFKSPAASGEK
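Fluo-8 calcium influx in TRPV1-expressing cells, kinetic read (ex 480/em 520 nm). Compound added and read 3 min for agonist activity, followed by capsaicin at EC20 final and 2 min further read for enhancement.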
An asterisk follows results filed as active; ? = inconclusive; nt = not tested or not shown; & = joins results of further samples; [ ] = remark or other dose.

SMILES | Menin MLL FP FL | gsp antag | TRPML1 blocker | gsp agonist | ClpP mod | Sfp PPTase inh | TRPV1 PAM
O=c1[nH]c2ccccc2cc1-c1nnn(-c2ccccc2)n1 | nt | -15% | 10 | -15% | -3.1% | nt | nt
O=[N+]([O-])c1ccccc1/C=N/N1CCN(c2ccccn2)CC1 | -0.6 | -15% | 13 | -9% | -1.2% | 5% | -1
O=C(COC(=O)c1ccc(-c2ccc([N+](=O)[O-])cc2)o1)NC(=O)NC12CC3CC(CC(C3)C1)C2 | 2.5 | -5% | 10 | -19% | -1.4% | 19% | -1
COCCCn1c(SCC(=O)Nc2ccc(C(C)=O)cc2)nc2ccccc2c1=O | 1.4 | -10% | 2 | -1% | -0.4% | -7% | 8
O=C(CNC(=O)c1ccc2ccccc2c1)NCc1ccccc1F | nt | 9% | -28 | -13% | -7.9% | 6% | -2
Clc1cccc(Cl)c1CSc1nnc(/C=C/c2ccccc2)o1 | 2.6 | -4% | 47 | 6% | -10% | -2% | 8
Cc1ccc(/C=C/C(=O)Nc2ccncc2)o1 | 0.4 | -5% | 1 | 32% | ? | -77% | -15
COc1ccccc1C(=O)OCCCN=C1NS(=O)(=O)c2ccccc21 | 0.3 | -3% | 21 | -18% | nt | 18% | -1
Cc1ccc(CN(C)C(=O)C2CCN(C(=O)Nc3ccccc3)CC2)o1 | nt | 3% | -15 | 6%[15.4 µM] | nt | nt | -4
COc1cccc(N2CCN(C(=O)CCS(=O)(=O)c3ccc4c(c3)oc(=O)n4C)CC2)c1 | nt | -10% | -4&24 | ? | 0.8%&0.5% | 10% | ?
Cc1cccc(C)c1NC(=O)CN(c1c(C)cccc1C)S(C)(=O)=O | nt | nt | 3 | 8% | -1.5% | nt | nt
Cc1cc(C)cc(NC(=O)CSc2cc(C(=O)c3nccn3C)c3ccccc3n2)c1 | 5.5 | -22% | 18 | 2% | 0.9% | -3% | 28
O=C(CSc1ccc(-c2ccncc2)nn1)N1CCN(c2ccccc2)CC1 | -2.7 | -22% | -8 | 4%[15.4 µM] | nt | 16% | -23
O=C1Nc2ccc(Cl)cc2C12OCCCO2 | 3.8 | -2% | 2 | -13% | nt | 5% | -3
Cc1c(C(=O)OCc2ccccc2)nnn1-c1nonc1N | 0.3 | -1% | 3 | -2% | -2.1% | 16% | -21
CCOc1cc(N2CCOCC2)c(OCC)cc1NC1=NCCCCC1 | 1.0 | -21% | 3 | -52%[inhibitor] | -0.7% | 5% | 4
COC(=O)c1ccc(-c2sc3nc(N4CCOCC4)c4c(c3c2N)CCCC4)o1 | ? | -19% | -8 | ? | -18% | ? | 7
COc1ccc2oc(=N)c(C(=O)Nc3ccc(Cl)cc3)cc2c1 | 5.1 | -2% | -14 | 9% | 4.9% | 18% | -2
CCOc1ccc(NC(=O)C(Cc2ccccc2)NC(=O)C2CCCCC2)cc1 (configuration not stated) | 0.9 | 9% | 11 | 0% | 1.7% | 27% | -10
CC1=C(C(=O)Nc2ccccc2)C(c2cccs2)NC(=O)N1 (configuration not stated) | -1.5 | 5% | -4 | -82%[inhibitor] | -0.2% | 19% | 4
COc1ccccc1CNC(=O)CCCc1ccccc1 | 0.9 | 3% | -3 | 5% | -1.5% | 10% | -4
CCCCC(=O)Nc1cc(NC(=O)CC)ccc1Cl | -2.4 | -5% | 66 | 7% | 3.0% | 12% | -1
Cc1ccc(NC(=O)CCNC(=O)c2ccc(Cl)cc2)cc1C | 2.5 | 7% | nt | -11% | -3.2% | 15% | -15
CCO/C=N/c1c(C#N)c(CC#N)nn1-c1ccccc1 | 3.0 | 5% | 2 | -43%[inhibitor] | -0.7% | 9% | 4
O=c1[nH]c(=O)n(C2CCCCCC2)c(O)c1C=NCc1ccc(F)cc1 | 1.9 | -5% | 3 | 17% | 2.1% | 6% | -23
CN(C)S(=O)(=O)c1ccc(Cl)c(NC(=O)COC(=O)CNC(=O)c2ccco2)c1 | 0.5 | -3% | -24 | -43% | -3.9% | 16% | 4
Cc1cc(C)n(S(=O)(=O)c2ccc(F)cc2)n1 | -3.8 | -10% | nt | -15% | -0.6% | 12% | -10
CCOc1ccc(/C=C(\C#N)C(=O)NCC2CCCO2)cc1OCC (configuration not stated) | 9.8 | 5% | 6 | -9% | -4.5% | 15% | -25
CCOc1ccc(C(=O)NCC2CCN(CC3CCCCC3)CC2)cc1 | -1.1 | -11% | 16 | 3%[15.4 µM] | ? | 2% | 0
Cc1cccc(C)c1NC(=O)CN1CCNCC1 | -0.8 | 12% | -16 | -8% | -3.2% | 4% | 26
CC1CC(C)CN(C(=O)Cn2nnc(-c3ccc(Br)cc3)n2)C1 (configuration not stated) | nt | 5% | 2 | 1%[15.4 µM] | nt | 15% | 4
O=S(=O)(Nc1cccc(-n2cnnn2)c1)c1ccccc1C(F)(F)F | 1.0 | -17% | -3 | ? | -0.2% | -9% | 0
Cn1nnc(NC(=O)c2cccs2)n1 | -3.5 | 7% | -7 | ? | 0.5% | 9% | 2
Cc1ccc(CNC(=O)CC(NC(=O)c2ccccc2)c2ccccc2)cc1 (configuration not stated) | nt | 1% | 4 | -12% | -5.0% | nt | 7
CCOC(=O)C1CCN(C(=O)COc2ccc(C(=O)c3ccccc3)cc2)CC1 | nt | -14% | 8 | 10% | nt | nt | nt
COc1ccc2oc(C(=O)OCC(=O)N3CCN(C(C)=O)CC3)c(C)c2c1 | nt | 10% | -14 | ? | 25µM* | nt | 14
O=C(OC(C(=O)NCc1ccc2c(c1)OCO2)c1ccccc1F)c1ccco1 (configuration not stated) | 5.2 | -5% | 12 | 2% | 1.7% | 17% | 16
O=C(CN1CCC(NC(=O)Nc2ccccc2)CC1)Nc1ccc([N+](=O)[O-])cc1 | 2.4 | -6% | 42 | 0% | nt | -2% | 1
CCN1CCN(c2ccc(S(=O)(=O)N3CCOCC3)cc2NC(=O)COc2ccc(F)cc2Cl)CC1 | nt | -3% | 15 | ? | 0.1% | 2% | -6
CCOC(=O)c1c(C)nn(-c2ccc(NC(=O)CSCC(=O)O)cc2)c1C | 8.2 | 14% | 6 | -5%[15.4 µM] | nt | -9% | 25
Clc1cccc(Nc2nnc(-c3ccccc3)c3ccccc23)c1 | 1.8 | nt | nt | nt | ? | 13%&-8% | nt
Cc1ccc(OCC(=O)NNC(=O)Nc2ccc(Cl)cc2)c(Br)c1 | nt | 8% | 22 | ? | nt | nt | nt
COc1ccccc1C(=O)NC(=O)COC(=O)c1ccc(Cl)cc1[N+](=O)[O-] | nt | -6% | 4 | 5% | -4.4% | nt | 3
COc1ccc(C(=O)NCCSCc2ccc(Cl)cc2)cc1OC | -6.4 | 1% | -18 | -41%[inhibitor] | -2.9% | 17% | 2
Cc1ccc(NC(=O)c2cncc(Br)c2)nc1 | nt | -14% | 10 | -57%[inhibitor] | -2.9% | 11% | -5

At a glance, 2 of the compounds above.
SMILES | Menin MLL FP FL | gsp antag | TRPML1 blocker | gsp agonist | ClpP mod | Sfp PPTase inh | TRPV1 PAM
COc1ccc(C(=O)NCCSCc2ccc(Cl)cc2)cc1OC | -6.4 | 1% | -18 | -41%[inhibitor] | -2.9% | 17% | 2
Cc1ccc(NC(=O)c2cncc(Br)c2)nc1 | nt | -14% | 10 | -57%[inhibitor] | -2.9% | 11% | -5

Additional entries:
SMILES | Menin MLL FP FL | gsp antag | TRPML1 blocker | gsp agonist | ClpP mod | Sfp PPTase inh | TRPV1 PAM
O=C(Nc1ccccc1)c1cccnc1Nc1ccccc1 | -1.6 | 0% | 15 | ? | -0.1% | 19% | 0
Cc1ccc(S(N)(=O)=O)cc1 | nt | 3% | 5 | nt | 0.3% | nt | 2
O=C(Nc1ccnn1C1CCN(C(=O)c2ccc(Cl)c(F)c2)CC1)C1CCOC1 (configuration not stated) | nt | -4% | -3 | 3% | -3.4% | 12% | 6
CC(=O)c1ccc(NC(=O)CCc2c(C)nc3ncnn3c2C)cc1 | 1.2 | 6% | 17 | 27% | 28µM* | -17% | ?
CC(C)[C@H](Nc1ccc(C(F)(F)F)cc1[N+](=O)[O-])C(=O)O | 2.4 | -2% | 28 | ? | 1.4% | 36%[activator] | 1
Cc1cccc(OCC(=O)O/N=C(\N)Cc2ccc(Cl)cc2)c1 | -0.3 | 3%[15.4 µM] | 20 | -46% | -1.1% | -3% | 1
CCOc1ccc(NS(=O)(=O)c2ccc3[nH]c(=O)oc3c2)cc1 | 1.2 | -12% | -18 | -22% | 1.6% | -5% | 11
O=C(NCc1ccccc1)C1(C(F)(F)F)C/C(=C/Cc2ccccc2)CCCO1 (configuration not stated) | 0.6 | nt | 44 | nt | nt | -10% | nt
N[C@@H](Cc1cnc[nH]1)C(=O)Nc1ccc2ccccc2c1 | nt | -6% | -4 | nt | 0.1% | nt | nt
Cc1cc(C(=O)COC(=O)c2cccc(NS(C)(=O)=O)c2)c(C)n1CC1CCCO1 (configuration not stated) | nt | -1% | 47 | 1% | -1.0% | nt | nt
COc1ccc(N2CCOCC2)c(NC(=O)c2ccco2)c1 | 0.4 | -3% | -3 | 19% | nt | 4% | -4
Cc1noc(C)c1C(=O)OCC(=O)/C=C1\N(C)c2ccccc2C1(C)C | 2.7 | 7% | -1 | 2% | -0.5% | 10% | -2
Cn1cc(CNC(=O)C2CCC(=O)N(Cc3cccc(C(F)(F)F)c3)C2)cn1 (configuration not stated) | nt | -13% | 15 | 6%[15.4 µM] | -11% | -8% | 1
O=C(NC1CCCC1)C1CCC(CNS(=O)(=O)c2ccc(F)cc2)CC1 (configuration not stated) | nt | 10% | -8 | 20% | 0.2% | 21% | -18
COc1ccc(C(=O)N2CCc3ccc(NC(=O)c4ccccn4)cc3C2)cc1F | 0.9 | ? | 5 | 6% | -0.1% | -7% | -23
Cc1cc(C(=O)N/N=C/c2ccc[nH]2)n[nH]1 | 5.0 | 3% | -18 | -4%[15.4 µM] | nt | -21% | -5
Cc1ccc(N2CN(Cc3ccco3)CNC2=S)c(C)c1 | -17 | -15% | -1 | 19%[15.4 µM] | -29% | -3% | -8
CSc1ncc2[nH]c(C(O)c3ccccc3)nc2n1 (configuration not stated) | nt | -6% | 19 | 18% | ? | nt | nt

Assay outcomes as filed in PubChem BioAssay.
